Screening data deposited in PubChem BioAssay by several laboratories.
ALR inh: blocks human ALR sulfhydryl oxidase activity | inhibition, % (no concentration beside the values) | purified ALR, DTT oxidation, H2O2 HRP-luminol luminescence | 290,000 tested, 3.8% active | AID 485317;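 active means mean and each replicate at 75% or more; inconclusive means only one of the two met; inactive means neither met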;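 further: stock transfer was 7.5 nL into about 7.5 µL; 0% = neutral wells and 100% = wells with inactivated enzyme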
Target sequence (P55789 whole entry, looked up): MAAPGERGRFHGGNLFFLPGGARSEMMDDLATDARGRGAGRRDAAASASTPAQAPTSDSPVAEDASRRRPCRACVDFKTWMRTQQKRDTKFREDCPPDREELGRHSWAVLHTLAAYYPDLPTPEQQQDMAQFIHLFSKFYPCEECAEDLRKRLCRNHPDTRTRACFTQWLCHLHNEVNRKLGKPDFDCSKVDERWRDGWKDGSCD
Calb FLC: affects C. albicans growth with fluconazole. C. albicans CaCi-2 (fluconazole-resistant clinical isolate) + fluconazole, Alamar Blue growth, 48 h. growth inhibition, % (concentration not given with the values). 300,000 tested, 0.57% active. AID 1979;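 active means most replicates above 75%; inconclusive means exactly half above 75%; inactive means most below 75%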;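 further: all wells also contain fluconazole at 8 µg/ml as a sub-toxic cotreatment; 0% = median of DMSO wells and 100% = median of geldanamycin control wells; wells of about 8 µL received 7.5 nL stock; the first replicate is given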
LANA-H2B inh: blocks KSHV LANA binding to histone H2A/H2B. AID 2629. Q9QR71. cell-free LANA-H2A/H2B peptide, fluorescence polarization. inhibition, % (concentration not given with the values). 320,000 tested, 0.6% active; in the data active means inhibition mostly above about 10%, no sharp cut-off; inactive means mostly below about 6.7%;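 further: stock transfer was 7.5 nL into about 10 µL; 0% = median of vehicle wells and 100% = median of positive control wells; one replicate is shown; the record names a cut of 25% in any replicate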
RanGTP-Imp inh: inhibitors of RanGTP-importin-beta interaction, primary screen, biochemical, FRET, CFP-Ran, YFP-importin-beta, homogeneous; cell-free CFP-Ran/YFP-importin-beta FRET ratio; 300,000 tested, 1.1% active; inhibition, % (no concentration beside the values);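 active means most replicates above 15%; inconclusive means exactly half above 15%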;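 further: 0% = DMSO wells and 100% = Ran loaded with GDP instead of GTP; wells of about 40 µL received 100 nL stock; the first replicate is given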
B2AR ag: activates human beta-2 adrenergic receptor causing internalization. P07550. Am2.2-beta2AR cells, FAP receptor internalization, flow cytometry; reference of the scale not given here. response, % (concentration not given with the values). 340,000 tested, 0.43% active;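 active means response above a set limit, near 3 SD of response in nonfluorescent compounds, cut at about 42% in these data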;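 further: stock transfer was 100 nL into about 11 µL; a reference agonist was the positive control; negative values mostly stem from fluorescent compounds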
Target sequence (P07550 whole entry, looked up): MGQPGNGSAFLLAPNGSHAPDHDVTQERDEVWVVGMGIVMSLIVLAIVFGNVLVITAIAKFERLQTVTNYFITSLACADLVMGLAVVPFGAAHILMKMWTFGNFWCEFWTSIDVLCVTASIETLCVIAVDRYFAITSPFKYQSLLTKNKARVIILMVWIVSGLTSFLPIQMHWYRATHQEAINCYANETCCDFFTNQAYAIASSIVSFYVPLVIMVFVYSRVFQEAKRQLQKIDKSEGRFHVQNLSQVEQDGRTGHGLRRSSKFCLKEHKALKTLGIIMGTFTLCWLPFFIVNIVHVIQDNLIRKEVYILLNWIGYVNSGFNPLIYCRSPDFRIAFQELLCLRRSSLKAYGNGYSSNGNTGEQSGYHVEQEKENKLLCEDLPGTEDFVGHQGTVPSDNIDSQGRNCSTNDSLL
HNF4A DNA FP: change in binding of human HNF4 alpha to DNA; 360,000 tested, 0.3% active; AID 1224865; activity change, % at 10 µM; HNF4a-FITC DNA binding, fluorescence polarization, 1 h; P41235; in the data active means activity change above about 30%, passing the limit was not always enough;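 further: controls were the assay level and a saturating level of protein; the project sought stronger binding though the title names inhibitors; some compounds called inactive have numbers as strong as hits; positive values seem to mean higher polarization but the record does not say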
Target sequence (P41235 whole entry, looked up): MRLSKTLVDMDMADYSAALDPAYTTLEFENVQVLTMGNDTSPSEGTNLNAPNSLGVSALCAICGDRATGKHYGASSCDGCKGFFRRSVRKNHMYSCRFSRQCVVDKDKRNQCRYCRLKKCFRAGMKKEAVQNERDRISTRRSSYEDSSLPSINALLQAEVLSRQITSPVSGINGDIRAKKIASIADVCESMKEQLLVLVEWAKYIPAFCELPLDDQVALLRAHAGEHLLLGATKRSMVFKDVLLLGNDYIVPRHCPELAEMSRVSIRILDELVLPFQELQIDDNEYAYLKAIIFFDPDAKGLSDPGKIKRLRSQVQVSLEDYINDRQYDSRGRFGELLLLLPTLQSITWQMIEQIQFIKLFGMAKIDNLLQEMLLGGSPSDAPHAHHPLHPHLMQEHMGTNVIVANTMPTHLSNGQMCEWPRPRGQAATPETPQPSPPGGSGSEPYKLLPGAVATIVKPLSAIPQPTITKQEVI
Vif A3G: inhibitors of Vif binding to APOBEC3G peptide, primary screen, biochemical, TR-FRET, GST-Vif 1-94, biotin-A3G peptide, dose response retest (AID 1117319); TR-FRET GST-Vif / biotin-A3G peptide binding; higher % means a stronger effect; test concentration not given here; strong numbers were not always called active; inhibition, %, or IC50 in µM where a hit was titrated; 260,000 tested, 0.57% active;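 active means above the screen mean plus three standard deviations and confirmed in dose response; inconclusive means results disagree or hit not tested in dose response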;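 further: Vif residues 1-94 fused to GST binding biotinylated APOBEC3G peptide 110-148; 0% = full assay without inhibitor and 100% = GST in place of GST-Vif; retest series ran down from 100 µM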
Active calls of the source: *; u = inconclusive; x = not tested or not shown. Outcome played no part in choosing rows; 6.3% or so of the library scored in one or more.

SMILES	ALR inh	Calb FLC	LANA-H2B inh	RanGTP-Imp inh	B2AR ag	HNF4A DNA FP	Vif A3G
O=C1NC(=O)/C(=C/c2ccc(-c3cccc([N+](=O)[O-])c3)o2)S1	-1	-6	-1.1	3.2	19	-29	0%
Cc1ccc(-c2nc3ncccc3o2)cc1NC(=O)COc1ccccc1	-6	u	0.1	2.0	-5	3.4	21%
CCOCCn1c(=NC(=O)CSCC(=O)Nc2cc(C)on2)sc2cc(OC)ccc21	-6	20	3.1	3.3	8	3.4	x
Cc1ccc(NS(=O)(=O)c2cc(C(=O)N(C)C3CCN(C)CC3)ccc2Cl)cc1Cl	-4	x	2.3	x	-7	-1.7	x
CCOC(=O)c1[nH]c2ccccc2c1NC(=O)NC(C)C	1	7	-2.4	1.0	-9	3.3	x
COc1cccc(C2CC(c3cccs3)=NN2C(=O)CSc2nc3ccccc3o2)c1OC (stereo not given)	-1	-9	-2.3	-0.3	3	0.8	x
CCOC(=O)c1sc(-c2ccc(C(F)(F)F)cc2)nc1O	11	6	-1.8	-127	8	-4.4	-2%
CCOC(=O)c1cn(-c2c(Cl)cccc2Cl)c2cc(Cl)c([N+](=O)[O-])cc2c1=O	-1	u	3.9	4.7	14	-2.5	22%
CCN(CC)S(=O)(=O)c1ccc(N2CCCC2)c(C(=O)OCC(=O)N2CCCC2)c1	-6	22	-0.2	-3.0	-4	-1.4	-8%
CCCOc1ccc(N2CC(C(=O)Nc3ccccn3)CC2=O)cc1 (stereo not given)	-1	-6	3.1	6.7	-5	0.1	-14%
CN(Cc1ccccc1)C(=O)COC(=O)c1cc(S(=O)(=O)N(C)C)ccc1N1CCCC1	x	-5	-0.3	-6.4	-1	-0.1	0%
COc1cc(NS(=O)(=O)c2ccc(NC(=S)NC(=O)CC(C)C)cc2)nc(OC)n1	17	17	3.7	-1.2	2	1.0	6%
Cc1oc(-c2ccc(Cl)cc2)nc1CN1CCC(C(=O)NCCCN2CCOCC2)CC1	-8	5	-1.2	3.5	9	0.8	u
COc1ccc(CNc2ccc3c(c2)CCC3)cc1OC	20	-26	-2.9	3.5	x	x	10%
COc1cccc2c(=O)cc(C)n(CC(=O)Nc3cccc(C)c3)c12	13	17	-4.1	-1.1	-3	0.7	-1%
O=C(c1ccc(F)cc1)C1CCN(C(=O)N2CCOCC2)CC1	-7	25	0.6	0.0	-5	1.5	-2%
O=C(COc1ccccc1)Nc1ccccc1C(=O)NC1CC1	-3	-3	-2.3	7.9	-4	-0.7	-11%
COC(=O)c1cc(S(=O)(=O)N2CCN(Cc3ccccc3)CC2)c[nH]1	-2	2	-6.1	-0.8	2	-2.1	x
Oc1ccc(-c2cnc(-c3ccc(O)cc3)nc2)cc1	33	-4	-0.4	5.4	-1	3.9	x
CCN(CC)CCOC(=O)c1ccc(N/C=C(/C#N)c2nc(-c3ccc4c(c3)OCO4)cs2)cc1	-10	11	-5.1	3.7	5	292*	x
COc1ccc(C2Nc3ccccc3C(=O)N2Cc2ccccc2)cc1OC (stereo not given)	-3	-7	-3.0	0.6	-9	-8.1	x
CN(C)C(=O)COC(=O)c1cccc(S(=O)(=O)Nc2ccc(OCc3ccccc3)cc2)c1	-4	3	-1.2	0.4	-1	2.9	-5%
CCCOc1ccc(C(=O)NCC(c2cccs2)N(C)C)cc1 (stereo not given)	-2	-4	-11	2.4	-2	1.6	x
Cc1ccc(N2CC(C(=O)NCCN3CCOCC3)CC2=O)cc1 (stereo not given)	1	-3	-0.6	-2.0	-9	3.6	x
O=C1Nc2ccc(Br)cc2C1(O)c1ccc(F)cc1 (stereo not given)	-5	3	-4.0	1.4	2	-0.3	-3%
COc1ccccc1NC(=O)NCCN1CCNC1=O	-3	-2	-1.0	0.2	-1	2.5	-2%
Cc1cccc(C(=O)NC(=S)NNC(=O)c2ccccc2Cl)c1	98*	0	-2.5	-0.2	-3	-2.6	6%
CC(=O)Nc1nnc(COc2ccccc2)s1	-5	-11	0.3	0.3	-14	1.1	x
Clc1ccccc1-c1nnc2n1-c1ccccc1SC2	-7	-4	-0.7	1.9	-1	0.8	2%
CC(=O)Cc1ccccc1OC(=O)c1ccco1	-10	-5	0.3	5.7	-1	1.5	1%
c1ccn2cc(CSC3=NCCS3)nc2c1	-4	6	7.4	4.4	-9	3.4	3%
COc1ccc(OC)c(C2C(C#N)=C(N)Oc3c2c(C)nn3-c2cccc(Cl)c2)c1 (stereo not given)	19	8	4.3	-0.1	2	2.0	10%
Nc1nonc1-c1nc2ccccc2n1CC(=O)N/N=C\c1ccc(-c2ccc(Cl)cc2)o1	1	-33	3.0	-3.5	-2	4.9	0%
COc1cccc(-n2cc(-c3ccc(F)cc3)[nH]c2=S)c1	51	-25	-3.3	-0.6	3	-3.0	x
Nc1ccc(-c2nc3c(ccc4ccccc43)[nH]2)cc1	99*	-4	0.7	-1.2	20	3.3	x
NC1=NC(c2ccccc2Cl)n2c(nc3ccccc32)N1 (stereo not given)	-2	2	6.3	-0.6	-10	0.9	-5%
O=c1c([N+](=O)[O-])cc(C(F)(F)F)cn1Cc1cccc(Cl)c1	-11	-13	-0.8	-3.1	-3	3.3	-2%
O=C(CNC(=O)OCc1ccccc1)NC(Cc1cnc[nH]1)C(=O)O (stereo not given)	x	x	x	x	-8	2.7	-5%
COc1ccc(C(=O)Oc2ccc(=O)n(-c3ccccc3)n2)cc1	98*	-7	2.0	-4.3	3	2.6	-6%
O=c1oc2ccccc2n1Cn1c(=O)oc2ccccc21	x	-17	-3.0	1.7	-7	-0.7	-4%
O=C(NCc1ccc(F)cc1)C1CCCN(c2cnccn2)C1 (stereo not given)	-11	4	-0.6	5.0	-1	1.1	x
CC(C)C(NC(=O)C(Cc1ccccc1)NC(=O)OCc1ccccc1)C(=O)O (stereo not given)	-2	11	-2.8	6.4	3	3.0	x
COc1cccc(CCC(=O)O)c1OC	-7	-7	2.8	4.1	-3	-0.7	-8%
COc1ccc(NC(=O)Cn2nnc(C(=O)NCc3cccc(OC)c3)c2N)cc1	-2	-2	1.7	2.4	2	0.0	4%
CC1(Br)C2CCCC1C2S(=O)(=O)c1ccccc1 (stereo not given)	-4	0	5.0	-3.7	-3	-1.0	x
CCOCCCNC(=O)CSc1nc2nc(C)c(Cc3ccccc3)c(C)n2n1	x	-7	-0.7	-2.7	-1	-2.0	3%
COc1cccc(N2C(=O)CC(NNc3nc4ccccc4s3)C2=O)c1 (stereo not given)	2	-6	-2.4	-1.5	-2	-0.2	15%
CCN(CC)S(=O)(=O)c1ccc(OC)c(-n2cnnn2)c1	-12	-6	-6.7	3.6	9	-5.3	x
O=C(COC(=O)Cc1ccccc1F)NCc1ccc(Cl)cc1	-3	x	-5.5	x	-3	4.6	2%
O=S(=O)(c1cc(Cl)ccc1Cl)n1ccnc1	x	x	x	x	-1	0.6	6%

Other entries:
SMILES	ALR inh	Calb FLC	LANA-H2B inh	RanGTP-Imp inh	B2AR ag	HNF4A DNA FP	Vif A3G
O=C(NC(Cc1ccccc1)C(=O)O)/C(=C/c1ccc([N+](=O)[O-])cc1)NC(=O)c1ccccc1 (stereo not given)	96*	0	0.0	2.2	0	-0.8	4%
CC(C)CCSc1nnc(Cn2c(=O)sc3ccccc32)n1C	-16	-11	3.1	6.8	-14	0.5	22%
O=C(NC1CCCCCC1)C1CCN(S(=O)(=O)c2cnc[nH]2)CC1	-5	-21	8.6	x	-9	0.4	-2%
Cc1ccc(C(=O)NCC(=O)OC(C)C(=O)NC2CCCCC2C)cc1C (stereo not given)	1	-2	-1.0	-0.9	5	1.8	6%
O=S(=O)(NC1CCN(Cc2ccccc2)CC1)c1cccc(S(=O)(=O)N2CCOCC2)c1	4	-31	-0.3	-0.4	7	-1.2	3%
O=C(O)CNS(=O)(=O)c1ccc2[nH]c(=O)c(=O)[nH]c2c1	-13	1	-4.2	-3.0	-3	4.3	7%
COc1cccc(-n2nc3c(=S)[nH]nc(C)c3c2C)c1	-3	-6	-7.8	-3.2	0	5.4	-2%
OCCNc1nc(OCC(F)(F)F)nc(N2CCN(C34CC5CC(CC(C5)C3)C4)CC2)n1	2	4	3.3	3.8	-2	1.1	5%
CCN(CC)S(=O)(=O)c1cccc(-c2nnc(SCc3nnc(-c4ccccc4)o3)n2C)c1	0	8	-1.9	3.6	-6	-0.8	2%
COc1cccc(C(=O)NNC(=O)Cc2ccc([N+](=O)[O-])cc2)c1	4	6	2.0	0.9	3	-1.5	u
O=S(=O)(c1ccccc1)c1nc(NCc2cccnc2)sc1Cl	-1	5	-3.4	1.3	0	2.2	6%
Cn1c(=O)oc2cc(S(=O)(=O)N3CCCC(C(=O)NCc4ccc5c(c4)OCO5)C3)ccc21 (stereo not given)	0	x	3.4	x	-14	-3.2	2%
Cc1ccc(N2C(=O)CSC2=S)cc1C	x	2	-1.5	5.6	12	0.5	11%
CCn1c(=O)n(CC)c2cc(N3CCCC3)c(NC(=O)c3ccccc3)cc21	97*	0	1.4	-1.1	-7	-0.1	x
CCOC(=O)C1CCCN(CCC(=O)Nc2ccc(Br)cc2)C1 (stereo not given)	-1	-48	-0.2	1.1	10	2.9	x
CCN1C(=O)[C@H]2[C@@H](c3ccc(C)cc3)N3C(=O)N(c4cccc(Br)c4)C(=O)[C@@]3(CC)[C@H]2C1=O	-9	-2	-2.3	1.0	0	2.4	x
Cc1ccc(Cc2nnc(SCC(=O)Nc3ccccc3Cl)[nH]c2=O)cc1	8	5	-2.5	0.7	1	-1.0	4%
O=C(OCCOCCN=C1NS(=O)(=O)c2ccccc21)c1ccccc1	-5	-1	-1.4	4.5	-1	1.7	x
CCOC(=O)C(CCSC)Nc1nc(Cl)nc(Nc2ccc(Cl)cc2)n1 (stereo not given)	-7	11	-0.9	4.8	-2	1.8	x
CC(C)c1nnc(SCC(=O)Nc2ccc3c(c2)OCCO3)n1C	-3	15	-6.1	2.6	-12	2.1	-3%

An excerpt from above in order of SMILES length, falling.
SMILES	ALR inh	Calb FLC	LANA-H2B inh	RanGTP-Imp inh	B2AR ag	HNF4A DNA FP	Vif A3G
Cc1ccc(Cc2nnc(SCC(=O)Nc3ccccc3Cl)[nH]c2=O)cc1	8	5	-2.5	0.7	1	-1.0	4%
O=C(OCCOCCN=C1NS(=O)(=O)c2ccccc21)c1ccccc1	-5	-1	-1.4	4.5	-1	1.7	x
CC(C)c1nnc(SCC(=O)Nc2ccc3c(c2)OCCO3)n1C	-3	15	-6.1	2.6	-12	2.1	-3%
O=S(=O)(c1ccccc1)c1nc(NCc2cccnc2)sc1Cl	-1	5	-3.4	1.3	0	2.2	6%
Cc1ccc(N2C(=O)CSC2=S)cc1C	x	2	-1.5	5.6	12	0.5	11%

The list continues.
SMILES	ALR inh	Calb FLC	LANA-H2B inh	RanGTP-Imp inh	B2AR ag	HNF4A DNA FP	Vif A3G
CCN(CC(=O)Nc1cc(Cl)ccc1C)C(=O)COc1ccccc1F	2	-1	0.3	3.1	-2	1.5	3%
COc1cc(C(=S)NC2CCCCC2)ccc1O	98*	1	0.1	6.9	-6	2.1	7%
COc1ccc(CCNC(=O)C2CCC(CNS(=O)(=O)c3ccccc3)CC2)cc1OC (stereo not given)	x	2	-7.5	4.5	x	x	x
COc1ccccc1N1CCN(Cc2nc3ccccc3[nH]2)CC1	25	0	-1.3	-5.1	2	-0.4	0%
Cc1nonc1OCCNCCNc1ccccc1[N+](=O)[O-]	-3	-13	24*	4.8	5	3.7	1%
CC(=O)Nc1ccc(NC(=O)CCC(=O)OCC(=O)c2cccc([N+](=O)[O-])c2)cc1	-19	-14	1.6	-1.0	7	1.8	7%
COc1ccc(N/C(N)=N/c2nc(C)c(Cc3ccccc3)c(=O)[nH]2)cc1	-3	4	-5.4	4.5	-16	0.0	-2%
Cc1ccc(-n2nc(C(=O)c3ccccc3)n3c(=O)cc(-c4ccccc4)nc23)cc1	-4	-3	2.4	-1.4	-4	40	30%
